Screening results: PubChem, National Center for Advancing Translational Sciences (NCATS)
Rango complex inh: qHTS Assay for Inhibitors of Rango (Ran-regulated importin-beta cargo) - Importin beta complex formation | Importin subunit beta-1 (Homo sapiens), Q14974 | Rango CFP/YFP FRET sensor + importin beta, 45 min | Potency, µM (doses to about 92.2 µM), for the others: at the highest dose inhibition of complex formation | 340,000 compounds, 0.031% hits | AID 540263, 2011; active = rising FRET ratio curve, often small or poorly fitted; inconclusive = mostly compound fluorescence or quenching in the first reads; inactive = flat curves in all reads;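 note: potency is the fitted concentration of half-maximal effect; 0% = DMSO wells and 100% = buffer wells lacking importin beta; nearly all actives have a fitted effect of over 15% in size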
Target sequence (Q14974 whole entry, looked up): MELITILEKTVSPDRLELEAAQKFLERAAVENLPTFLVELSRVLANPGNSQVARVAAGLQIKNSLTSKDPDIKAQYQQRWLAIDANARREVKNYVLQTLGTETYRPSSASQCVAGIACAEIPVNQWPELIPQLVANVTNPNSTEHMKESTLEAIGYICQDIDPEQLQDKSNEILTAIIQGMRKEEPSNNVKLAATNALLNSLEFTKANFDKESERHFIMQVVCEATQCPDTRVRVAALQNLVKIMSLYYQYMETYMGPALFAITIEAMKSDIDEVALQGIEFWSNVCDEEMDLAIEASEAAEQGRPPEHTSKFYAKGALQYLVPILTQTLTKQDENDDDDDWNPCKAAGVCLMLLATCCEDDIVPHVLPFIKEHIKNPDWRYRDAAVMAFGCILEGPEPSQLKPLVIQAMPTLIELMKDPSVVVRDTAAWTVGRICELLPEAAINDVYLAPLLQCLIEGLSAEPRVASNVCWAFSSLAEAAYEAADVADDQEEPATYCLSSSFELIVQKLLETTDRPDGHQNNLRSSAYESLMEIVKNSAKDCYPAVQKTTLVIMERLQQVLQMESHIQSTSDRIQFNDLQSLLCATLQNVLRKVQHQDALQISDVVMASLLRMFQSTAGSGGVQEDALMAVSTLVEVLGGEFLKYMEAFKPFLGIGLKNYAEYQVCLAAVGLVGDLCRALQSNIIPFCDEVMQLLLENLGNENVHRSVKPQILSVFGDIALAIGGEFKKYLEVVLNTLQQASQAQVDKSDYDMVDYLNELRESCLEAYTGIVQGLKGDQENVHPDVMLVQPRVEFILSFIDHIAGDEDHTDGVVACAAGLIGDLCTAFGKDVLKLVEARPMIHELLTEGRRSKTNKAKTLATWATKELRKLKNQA
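Inhibition scored from the CFP 486 nm/YFP 530 nm FRET ratio 45 min after adding 0.125 microM importin beta to 50 nM Rango biosensor preincubated 5 min with compound (room temperature, PBS with DTT, Tween-20, BSA). No-importin wells as positive control.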
Rango release inh: qHTS Assay for Inhibitors of RanGTP induced Rango (Ran-regulated importin-beta cargo) - Importin beta complex dissociation. Biochemical FRET Rango-importin beta, RanGTP-induced dissociation. Potency, µM (titrated, usually from 46.1 µM), without a hit: at the highest dose activity change, negative = inhibition. 340,000 compounds, 0.071% hits; active means falling FRET ratio curve, often poorly fitted, with flat reads before Ran was added; inconclusive means other falling curves, or compound fluorescence or quenching; inactive means flat or rising ratio curve;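 note: potency is the fitted concentration of half-maximal effect; % of control where 0% means no effect; nearly all actives have a fitted effect of over 45% in size; -100% = wells without RanGTP and RCC1; the record marks most hits as doubtful in a second field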
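Quantitative HTS using a FRET biosensor: 0.1 uM Rango, 0.25 uM importin beta, 0.6 uM Ran, 2 mM GTP, 0.2 uM RCC1 final, PBS with DTT, Tween-20 and BSA. Post-read taken 45 min after Ran addition.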
GLA inh pH 4.5: qHTS Assay for Inhibitors of Human alpha-Galactosidase at pH 4.5; activity change, negative = inhibition, % at 105 µM; AID 1467, 2008; purified enzyme, 4-MU-alpha-Gal fluorescence, pH 4.5; 230,000 tested, under 10 active; inconclusive = small, poorly fitted or top-dose-only inhibition, or a rising curve; inactive = flat fitted curve, though single readings scatter; no compound was filed as active;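 note: 0% = full activity with enzyme and -100% = basal without enzyme; dose as in the result columns while the protocol names 77 µM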
miR-21 reporter: qHTS Assay for Modulators of miRNAs and/orActivators of miR-21; HeLa miR-21 FLuc reporter, luciferase, 48 h; Potency, µM (titrated, usually from 38.3 µM), inactives show top-dose reporter change, positive = more light; 340,000 tested, under 10 active; AID 2288, 2010; active = well fitted rising curve with a large enough effect; inconclusive = small, poorly fitted or top-dose-only effect; inactive = no such curve, though single readings can be large or run the other way;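 note: % of control where 0% means no effect; miR-21 action dims this reporter so a rising signal means less miR-21 action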
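Using DMEM plus 10% FBS, HeLa miR-21-FLuc cells are incubated with test compounds (final up to about 40uM) for 48 hours; firefly luciferase signal is then imaged following reagent-mediated lysis.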
* marks the source's active call; other numbers are inactive results; ? = inconclusive; . = not tested or not shown. A portion of the library; the hit share may differ from the screen's.

Rango complex inh | Rango release inh | GLA inh pH 4.5 | mol | miR-21 reporter
-2.6% | -10% | -2 | COc1ccc(/C(C)=N/Nc2ncc(Cl)cc2Cl)c(O)c1 | -5%
-0.2% | 0% | -11 | c1ccc(N2CCN(c3ccccc3)C2c2cccs2)cc1 | -31%
0.8% | 0% | 1 | CCN(C(=O)Nc1ccccc1OC)c1c(N)n(Cc2ccccc2)c(=O)[nH]c1=O | -5%
2.6% | 9% | . | COc1ccc(NC(=O)c2cc(-c3ccc(C)cc3)on2)cc1 | -6%
2.1% | -11% | 4 | CCCNC(=O)C1CCN(S(=O)(=O)c2ccc(Br)cc2)CC1 | -9%
3.6% | -3% | . | CC(C)(C)c1ccc(C(=O)NNC(=O)c2ccncc2)cc1 | -16%
1.1% | 2% | 2 | CCN(CC)c1ncn(Cc2c(Cl)cccc2Cl)c2ncnc1-2 | 10%
-0.8% | -2% | -2 | COC(=O)C1CCN(C(=O)Cc2ccc(Br)cc2)CC1 | -36%
-1.4% | 1% | 6 | Cc1cc(C)n(C(=O)c2ccc(NC(=O)C3COc4ccccc4O3)cc2)n1 (stereo not drawn) | -18%
0.1% | 6% | -1 | O=[N+]([O-])c1cccc(/C=N/Nc2nccnc2Cl)c1 | -43%
2.8% | -4% | -15 | COc1cccc(N/C(SCc2cccc([N+](=O)[O-])c2)=C(/C#N)C(=O)NCc2cccs2)c1 | 0%
-4.7% | 28% | 7 | O=C(CCC(=O)c1ccc(F)cc1)OC1CCOC1=O (stereo not drawn) | -4%
5.4% | -14% | 4 | Cc1cccc(NC(=O)NCCc2ccc(Cl)cc2)c1 | -25%
1.3% | 1% | . | O=C(CCN1CCCO1)NC1CCCc2c1cnn2-c1ccccc1F (stereo not drawn) | 0%
1.6% | -1% | -7 | CCCN1CN(Cc2ccccc2)CNC1=S | -4%
? | 0% | 6 | CCNC(=S)N/N=C(\C)c1cccc(OC)c1 | -21%
-0.9% | 6% | -5 | COCCCN1C(=O)C(=O)/C(=C(/O)c2ccc(C)cc2)C1c1ccccc1 (stereo not drawn) | -6%
-3.5% | -1% | 8 | COc1ccc(-c2cc(C(=O)Nc3c(Cl)cc(Cl)cc3Cl)c3ccccc3n2)cc1OC | 3%
-2.7% | -9% | -16 | CCn1c(CSc2ncccn2)nnc1SCC(=O)N1c2ccccc2CC1C (stereo not drawn) | 0%
? | ? | . | COC(=O)C1=CN(Cc2ccc(OC)c(OC)c2)C=C(C(=O)OC)C1c1cccc(OC)c1OC | -26%
3.6% | 14% | 0 | CCOC(=O)N1CCN(CCC(=O)Nc2ccc(C)c(Br)c2)CC1 | -2%
0.2% | -14% | 1 | COc1ccc(NC(=O)CN2C(=O)C(C)Oc3ccccc32)c(OC)c1 (stereo not drawn) | -3%
0.0% | -13% | . | COc1ccc(NC(=O)Nc2cccc3ccccc23)cc1S(N)(=O)=O | -3%
-2.0% | -17% | . | Cc1cc(C(C)(C)C)cc(C)c1C[n+]1ccc2ccccc2c1 | ?
6.3% | -5% | -1 | S=C(Nc1ccccc1)N1CCOCCOCCN(C(=S)Nc2ccccc2)CCOCCOCC1 | 0%
? | -2% | . | O=C(NC1CC(=O)N(c2ccccc2)C1)N1CCN(C(=O)c2ccco2)CC1 (stereo not drawn) | .
-4.9% | -11% | . | Nc1c(N(Cc2ccco2)C(=O)c2ccc(Br)cc2)c(=O)[nH]c(=O)n1Cc1ccccc1 | .
2.3% | -12% | 3 | O=C(Oc1ccccc1)c1cc2ccccc2o1 | -5%
0.7% | -11% | . | CN(C)C(=O)CCc1ccc2c3c([nH]c2c1)[C@]1(C)[C@@H](C(=O)N2CCOCC2)C[C@H](CC(=O)NCc2cccc(C(F)(F)F)c2)C(=O)N1CC3 | .
0.3% | 19% | . | O=C(NCc1ccccn1)c1ccc2c(=O)n3nc(Nc4ccccc4)sc3nc2c1 | 13%
0.4% | 5% | 3 | CC(C)C(=O)NC(Nc1ccccc1F)C(Cl)(Cl)Cl (stereo not drawn) | -5%
0.3% | -2% | 1 | O=C(Nc1ccc(Cl)cc1)C1CCCN(S(=O)(=O)c2cnc[nH]2)C1 (stereo not drawn) | 2%

Reprinted from the part before: 3 compounds, followed by the next part.
Rango complex inh | Rango release inh | GLA inh pH 4.5 | mol | miR-21 reporter
0.3% | 19% | . | O=C(NCc1ccccn1)c1ccc2c(=O)n3nc(Nc4ccccc4)sc3nc2c1 | 13%
0.4% | 5% | 3 | CC(C)C(=O)NC(Nc1ccccc1F)C(Cl)(Cl)Cl (stereo not drawn) | -5%
0.3% | -2% | 1 | O=C(Nc1ccc(Cl)cc1)C1CCCN(S(=O)(=O)c2cnc[nH]2)C1 (stereo not drawn) | 2%
1.9% | -21% | -15 | CN(c1ccc(OCC(=O)OCC(=O)Nc2ccccc2)cc1)S(=O)(=O)c1cccs1 | 0%
1.1% | -23% | 7 | O=C1CN(C(=O)CSc2nncs2)c2ccccc2N1 | -2%
3.8% | 8% | . | Cc1ccccc1S(=O)Cc1ccc(C(=O)NC2CC2)o1 (stereo not drawn) | -4%
0.1% | 13% | -7 | O=[N+]([O-])c1cccc(C(=Nc2ccc(Cl)cc2)NO)c1 | -4%
-1.9% | 9% | -5 | CC(=O)c1cc(-c2ccccc2)n(CC(=O)Nc2cccc(C)c2)c1C | 11%
-4.3% | 15% | -6 | COc1ccccc1NC(=O)C1=C(C)NC(=O)NC1c1cccs1 (stereo not drawn) | 0%
4.9% | -3% | -3 | COCCCn1cc(C(=O)c2ccccc2OCC(=O)Nc2cccc(F)c2)cc(C#N)c1=O | -15%
-2.1% | -5% | -13 | O=C(CCCSc1nnc(-c2cccs2)n1CC1CCCO1)c1ccccc1 (stereo not drawn) | 8%
-0.4% | -1% | . | C[C@H](NC(=O)N1CCn2c1nc1ccccc12)C(=O)NCC1CCCO1 (stereo partly drawn) | 0%
2.1% | 1% | -7 | Clc1ccc(-c2nnc(-c3ccco3)o2)cc1 | -51%
4.9% | 1% | -3 | Cc1cccc(NC(=O)CS(=O)(=O)c2c[nH]c3ccccc23)c1C | -12%
-0.7% | 1% | . | COC(=O)COc1ccc2c(c1)O/C(=C\c1cccc([N+](=O)[O-])c1)C2=O | 0%
8.8% | -4% | 3 | O=C(Nc1ccc(Sc2ccc(Br)cc2)cc1)c1ccco1 | -26%
2.5% | 30% | . | Cc1ccc(C)c(OCCC(=O)OCC(=O)NCCc2ccc(S(N)(=O)=O)cc2)c1 | .
0.0% | -10% | -9 | O=C(NCc1ccc(-c2nc3ccccc3s2)cc1)c1ccco1 | -41%
-1.9% | 0% | 7 | CCOc1ccc2[nH]c(=O)c(CN(CC3COCCO3)C(=O)c3ccc(C)cc3)cc2c1 (stereo not drawn) | -1%
0.1% | 11% | 1 | CCn1c(C(=O)N2CCCC(C(=O)O)C2)cc2sccc21 (stereo not drawn) | -10%
. | . | 3 | CSC1=C(C#N)C2(CCCC2)C(C#N)=C(N)N1 | -7%
. | . | -2 | Cc1ccc(O)c(/C=N/NC(=O)C2=NNC(c3ccccc3)(c3ccccc3)C2)c1 | -1%
5.1% | 0% | 5 | C=CCc1ccc(OCC(O)CN2CCCCC2)c(OC)c1 (stereo not drawn) | -12%
-1.2% | 2% | -11 | CCCCc1nc2sc3c(c2c(=O)[nH]1)CCC3 | -3%
0.1% | -9% | . | COc1ccc(/C=N/NC(=O)c2nn(C)cc2Br)cc1CSCc1ccco1 | -17%
6.2% | 20% | 1 | CCn1cnc2cc(NCc3ccc(C)cc3)ccc21 | -69%
-1.2% | 1% | . | C=CCn1c(SCC(=O)c2ccc(O)c(O)c2)nnc1-c1cccc(Cl)c1 | .

An excerpt from above, showing only GLA inh pH 4.5 and Rango release inh:
SMILES | GLA inh pH 4.5 | Rango release inh
CCn1c(C(=O)N2CCCC(C(=O)O)C2)cc2sccc21 (stereo not drawn) | 1 | 11%
CCCCc1nc2sc3c(c2c(=O)[nH]1)CCC3 | -11 | 2%
C=CCc1ccc(OCC(O)CN2CCCCC2)c(OC)c1 (stereo not drawn) | 5 | 0%

Further records follow.
Rango complex inh | Rango release inh | GLA inh pH 4.5 | mol | miR-21 reporter
? | ? | 6 | CCC(=O)NC(c1ccco1)c1cc(Cl)c2cccnc2c1O (stereo not drawn) | ?
1.3% | -6% | 0 | CCOC(=O)C1CN(S(=O)(=O)c2ccc(F)cc2)C1 | 1%
? | 29% | . | COc1ccc(OC)c(N2C(=NC(=O)C3CCCCC3)SC3CS(=O)(=O)CC32)c1 (stereo not drawn) | -1%
-5.5% | 5% | . | CN(Cc1cnn(-c2ccccc2)c1)C(=O)C1CCC(=O)N(C2CC2)C1 (stereo not drawn) | -4%
? | -5% | 3 | COc1ccc(-c2noc(CSc3nc(-c4ccccc4)cc(=O)[nH]3)n2)cc1OC | -2%
-0.9% | -10% | -1 | CCCSc1nc2c(c(=O)[nH]c(=O)n2C)n1CCc1ccccc1 | -6%
-0.4% | 2% | . | O=C(COC(=O)C1CCN(S(=O)(=O)c2ccc(Cl)c(C(F)(F)F)c2)CC1)NCc1ccco1 | .
1.7% | -13% | 0 | NC(=O)COC(=O)c1cc(S(=O)(=O)N2CCN(c3ccccc3)CC2)ccc1Cl | 2%
-1.2% | 5% | . | C[C@]12c3[nH]c4ccc(Cl)cc4c3CCN1C(=O)[C@@H](CC(=O)NCc1ccco1)C[C@@H]2C(=O)N1CCCCC1 | .
-1.8% | -16% | 4 | Cc1ccc(NC(=O)COC(=O)c2cccc3c2C(=O)c2ccccc2C3=O)c(C)c1 | -3%
0.6% | 15% | 2 | COc1ccccc1NC(=S)NCc1ccccn1 | -10%
0.0% | 17% | . | Nc1nc(COC(=O)C2CC(=O)N(Cc3ccccc3Cl)C2)nc(Nc2ccccc2)n1 (stereo not drawn) | .
1.9% | 1% | -4 | C#CCOCCOCCOCCNc1nc(N2CCN(C(=O)[C@H](CCC(=O)O)n3cc(C(N)Cc4ccc(O)cc4)nn3)CC2)nc(N2CCN(C(=O)[C@H](CCC(=O)O)n3cc(C(N)CC(C)C)nn3)CC2)n1 (stereo partly drawn) | 0%
-1.1% | -2% | -1 | Cc1ccc(-c2noc(=O)n2CC(=O)c2ccc(Cl)cc2)cc1 | -28%
-2.2% | 5% | -12 | Fc1ccc(Nc2nnc(C(F)(F)F)s2)cc1Cl | ?
-0.9% | 0% | . | O=C(/C=C/c1ccc(OC(F)F)cc1)Nc1cccc(S(=O)(=O)NC2=NCCCCC2)c1 | 21%
0.1% | 2% | . | O=C(O)CC1(CC(=O)Nc2ccc(C(F)(F)F)cc2)CCCC1 | -3%
-2.3% | -11% | 6 | Cc1ccc(NC(=O)NNC(=O)c2snnc2C)cc1 | -25%
? | ? | -2 | COc1cc(/C=c2\sc3n(c2=O)C(c2ccccc2)C(c2ccccc2)=NN=3)ccc1O (stereo not drawn) | 3%
-1.2% | -1% | . | O=[N+]([O-])c1ccccc1S(=O)(=O)NCCSCc1ccco1 | .
0.3% | 1% | 2 | COc1ccc(OCCCC(=O)NCC(C)C)cc1 | 0%
? | -12% | 3 | O=C(NCc1ccccn1)c1cccc(NS(=O)(=O)c2ccccc2F)c1 | -5%
3.1% | -13% | -7 | COCCNC(=S)NCc1cccs1 | 2%
-0.7% | 0% | -4 | COc1ccc(OC)c(-n2c(-c3ccc(S(C)(=O)=O)cc3)cc(C=O)c2C)c1 | -4%
-0.5% | 0% | . | O=C(COC(=O)c1cccnc1Cl)NC12CC3CC(CC(C3)C1)C2 | .
-1.7% | -10% | 0 | N#Cc1ccc(-c2ccc(F)cc2)nc1Oc1ccccc1 | -3%
0.3% | -10% | . | CCOC(=O)c1n[nH]n2c1nc(=O)c1ccccc12 | -5%
-0.9% | 8% | . | N#Cc1ccc(OCC(=O)Nc2ccncc2)cc1 | 0%
3.5% | -11% | . | Cc1onc(-c2c(Cl)cccc2Cl)c1C(=O)N1CCN(Cc2ccccc2)CC1 | -2%
-0.8% | -5% | 6 | CCOC(=O)c1sc(NC(=S)NC(=O)C2CC2)cc1C | -22%
